Six1-Eya2 inh – Six1/Eya2 interaction inhibition | Q15475+O00167 | activity change, % (no concentration beside the values) | 360,000 compounds, 0.56% hits | AlphaScreen GST-Six1/His-Eya2 binding, biochemical; active compounds read low; control for the full effect not named in the record | AID 651725; in the data active = activity change below about -65%; inconclusive = about -30% to -65%; inactive = above about -30%; also: % is scaled to controls: 0 for no effect and ±100 for the full control effect
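Six1/Eya2 binding was read as AlphaScreen signal after compounds were pinned into GST-Six1 plus His-tagged Eya2 (5X stock 250/500 nM) in pH 8.0 Tris/NaCl/TCEP buffer, beads added, then incubated 1 h, 37 C, dark.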
PINK1 modulator – PINK1 expression modulation. PINK1 immunofluorescence, high-content cytometry, 24 h. Potency, µM (highest dose often 76.6 µM), without a hit: at the highest dose activation (PINK1 increase), actives largely listed as activators. 410,000 compounds, 0.2% hits. AID 624263; active = well fitted activation curve with a large enough effect; inconclusive = small, poorly fitted or top-dose-only effect; inactive = flat fitted curve, though single readings scatter; cell line not stated here;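 also: potency is read from the fitted curve at half-maximal effect; % of control where 0% means no effect; nearly all actives have a fitted effect of over 65% in size; a mitochondrial uncoupler was the plate control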
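Stable cell line treated 24 h with compounds at 5 concentrations (CCCP controls), then fixed and immunostained for PINK1 plus nuclear and cell stains; PINK1 immunofluorescence quantified by laser-scanning microplate cytometry.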
Sfp inh – blocks B. subtilis Sfp PPTase activity; 310,000 compounds, 3.5% hits; Q9F4F7; Potency, µM, without a hit: max response, negative = inhibition, actives largely listed as inhibitors; Biochemical Sfp PPTase activity, qHTS; active = well fitted inhibition curve with a large enough effect; inconclusive = small, poorly fitted or top-dose-only effect, or another doubt; inactive = no such curve, though single readings can be large or run the other way;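 also: the enzyme is Sfp with the accession as filed and its product quenches rhodamine fluorescence; potency is read from the fitted curve at half-maximal effect; 0% = enzyme reaction without inhibitor and -100% = no enzyme wells; top concentration of the series not given in the record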
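Reaction rates are the 30-min fluorescence difference (ex 525, em 598 nm) in wells containing 15 nM Sfp, 5 uM rhodamine-CoA and 12.5 uM BHQ-2-YbbR at pH 7.6 with 10 mM MgCl2.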
TRPV1 potentiator – enhances activation of the human vanilloid receptor TRPV1 | potentiation, % at 8.33 µM | Q8NER1 | TRPV1-expressing cells, Fluo-8 calcium influx, capsaicin EC20 potentiation; host cell line not named in the record; control for the full effect not named in the record | AID 540277 | 320,000 compounds, 0.02% hits; active means potentiation above 80%; inconclusive means 30% to 80%; inactive means below 30%; also: 0% is about no effect
Target sequence (Q8NER1 whole entry, looked up): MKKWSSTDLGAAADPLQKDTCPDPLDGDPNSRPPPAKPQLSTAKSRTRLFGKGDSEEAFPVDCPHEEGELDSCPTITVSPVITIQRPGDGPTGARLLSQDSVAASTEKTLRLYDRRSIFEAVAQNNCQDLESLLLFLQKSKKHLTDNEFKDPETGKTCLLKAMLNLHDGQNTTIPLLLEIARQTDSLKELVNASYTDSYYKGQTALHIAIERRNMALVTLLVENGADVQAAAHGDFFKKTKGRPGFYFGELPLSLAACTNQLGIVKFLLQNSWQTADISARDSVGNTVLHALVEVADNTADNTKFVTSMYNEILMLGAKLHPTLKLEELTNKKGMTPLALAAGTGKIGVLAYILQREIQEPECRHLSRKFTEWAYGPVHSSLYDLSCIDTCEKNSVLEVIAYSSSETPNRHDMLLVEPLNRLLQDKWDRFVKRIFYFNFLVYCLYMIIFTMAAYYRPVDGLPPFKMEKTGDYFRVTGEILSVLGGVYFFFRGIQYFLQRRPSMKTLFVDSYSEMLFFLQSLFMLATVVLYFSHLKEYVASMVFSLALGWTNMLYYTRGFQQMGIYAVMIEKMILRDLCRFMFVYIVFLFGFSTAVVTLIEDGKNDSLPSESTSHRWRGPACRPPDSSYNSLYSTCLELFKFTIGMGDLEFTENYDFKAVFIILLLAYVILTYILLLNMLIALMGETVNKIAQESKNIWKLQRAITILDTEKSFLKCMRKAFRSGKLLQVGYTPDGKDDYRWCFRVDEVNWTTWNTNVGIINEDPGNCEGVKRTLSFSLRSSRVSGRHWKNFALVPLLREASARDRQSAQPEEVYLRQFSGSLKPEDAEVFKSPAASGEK
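Fluo-8 calcium influx in TRPV1-expressing cells, kinetic read (ex 480/em 520 nm). Compound added and read 3 min for agonist activity, followed by capsaicin at EC20 final and 2 min further read for enhancement.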
D2 potentiator – human D2 receptor positive allosteric modulation; 360,000 compounds, 0.23% hits; DiscoveRx D2 beta-arrestin cells, luminescence, 90 min; 100% = 57 uM dopamine signal; potentiation, % (test concentration not listed); active = potentiation of 50% or more; inconclusive = 30% to 50%; inactive = 30% or less;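 also: compound concentration not given in the record; tested on top of an EC20 dose of dopamine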
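PathHunter D2 cells, attached overnight at 37 deg C, received compound in DMSO plus dopamine at EC20 (50 nM final) for 90 min at 37 deg C. Beta-arrestin recruitment was read as luminescence after 1 h with detection reagent at ambient temperature.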
D2 ag – activates the human D2 dopamine receptor. DiscoveRx PathHunter D2 beta-arrestin, luminescence, 90 min; 100% = 57 uM dopamine signal. activation, % (test concentration not listed). 360,000 compounds, 0.084% hits; in the data active = activation above about 40%; inconclusive = about 15% to 40%; inactive = below about 15%; also: compound concentration not given in the record; the text of the record calls up to 30% inactive
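Agonist mode: compounds alone added to overnight-plated D2 PathHunter cells for 90 min at 37 C, with 57 uM final dopamine (EC100) defining full response. Beta-arrestin recruitment detected by chemiluminescent reagent, read after 1 h at ambient temperature.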
CtBP-E1A blk – blocks the CtBP interaction with E1A | AlphaScreen GST-E1A/His-CtBP binding, 1536-well; active compounds read low; control for the full effect not named in the record | activity change, % (no concentration beside the values) | 340,000 compounds, 0.49% hits; in the data active means activity change below about -65%; inconclusive means about -30% to -65%; inactive means above about -30%; also: % is scaled to controls: 0 for no effect and ±100 for the full control effect
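Protein mix (5X: 125 nM each GST-E1A, His-CtBP) was incubated with pinned compound 2 h at 37 deg C in dark, in 50 mM Tris pH 8.0 buffer with 300 mM NaCl. Glutathione donor and nickel acceptor beads followed; AlphaScreen signal read after 1 h.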
Active calls of the source: *; ? = inconclusive; . = not tested or not shown; & = joins results of further samples; [ ] = dose if it differs, or a comment.

item	structure	D2 potentiator	PINK1 modulator	TRPV1 potentiator	Six1-Eya2 inh	D2 ag	Sfp inh	CtBP-E1A blk
1	CCOc1ccc(N2CC(C(=O)NCC(=O)Nc3ccc(F)c(F)c3F)CC2=O)cc1 (stereo not given)	-3.9	9.4%	8.5	1.2	-1.5	.	0.0
2	N#Cc1ccc(C(=O)OCC(=O)Nc2cccc(S(=O)(=O)N3CCCCC3)c2)cc1	-3.0	1.3%	2.3	-4.5	-0.5	.	-7.7
3	CCn1cc(C(=O)NCC2CCCO2)c(=O)c2cc(S(=O)(=O)N(C)C)ccc21 (stereo not given)	-3.6	0.0%	15.1	1.7	-0.5	14.7%	-2.6
4	COc1ccc(C(=O)N2CCC(n3nccc3NC(=O)C3CC3)CC2)cc1F	-5.9	0.1%	-6.4	1.8	1.2	12.6%	4.7
5	COCc1cc(C)nc(OCC(=O)N/N=C/c2ccc(O)cc2)c1C#N	-18.7	3.5%	-0.8	0.4	-3.6	1.2%	21.1
6	CC1(C)CC2(OC2c2ccccc2[N+](=O)[O-])C(=O)c2ccccc21 (stereo not given)	-2.1	1.5%	.	1.2	-3.3	.	0.2
7	Cc1c(Cl)c([N+](=O)[O-])nn1CCCC(=O)Nc1cccc(Cl)c1Cl	-27.1	-1.3%	-10.0	-7.2	-9.2	-12.7%	13.8
8	CCOc1ccc(OCCCCn2ccnc2)cc1	-6.4	-0.2%	?	0.5	-2.2	-22.8%	-3.1
9	Cc1cc(C(=O)CSc2nncs2)c(C)n1-c1c(C)n(C)n(-c2ccccc2)c1=O	-8.5	-4.3%[38.3 µM]	-13.0	-1.4	0.2	-8.1%	10.6
10	COc1ccc(C(=O)CSc2nnc(-c3ccc(C)cc3)o2)cc1	-2.4	12.6%[38.3 µM]	4.4	5.4	-3.5	-22.7%	1.9
11	N#CCCN(Cc1ccccc1)C(=O)c1nccnc1C(=O)O	-3.4	1.4%	-13.7	5.3	4.3	-4.8%	.
12	Cc1cccc(Cc2ccc(Cl)nn2)c1	-5.7	0.4%	4.0	15.0	0.1	3.0%	24.9
13	COc1ccc(CCNC(=O)Cn2ccc3cc(S(=O)(=O)N4CCCC4)ccc32)cc1OC	-22.0	-0.5%	-3.6	3.2	2.4	8.8%	3.4
14	C=CCNc1nc(-c2ccc(O)c(C(N)=O)c2)cs1	-13.0	-0.6%	3.9	-16.5	-1.9	-12.6%	-8.4
15	CSc1cnc2c(=O)n(C)c(=O)[nH]c2n1	-11.6	7.6%	3.9	6.2	-1.2	9.5%	-5.4
16	Cn1cccc1/C=N/n1c(-c2ccco2)n[nH]c1=S	-0.9	2.4%	6.4	2.2	-1.3	?	10.5
17	Cc1cccc(C)c1NC(=O)CNC(=O)c1ccccc1	4.6	3.9%	1.7	6.7	3.5	6.6%	11.5
18	CCc1nc2ccccc2c(C(=O)OCCN2C(=O)c3ccccc3C2=O)c1C	5.4	-1.0%	?	-3.2	1.8	-16.6%	1.1
19	COC(=O)[C@@]1(Sc2ccc(C)cc2)CC(=O)N(c2ccc3c(ccn3C)c2)[C@@H]1c1ccccc1	.	1.4%	.	-14.5	.	.	-6.8
20	O=C(c1cccnc1)N1CCN(Cc2cccc(F)c2)CC1	-6.9	8.3%	-4.8	8.7	1.7	79.4µM*	3.6
21	Cc1ccc(SCC(=O)Nc2ccc(N3CCOCC3)cc2)cc1C	-3.5	1.2%	-10.6	-2.2	-4.9	.	-12.5
22	COc1cc(C)c(Cl)cc1S(=O)(=O)n1cnc2ccccc21	-8.1	0.8%[38.3 µM]	3.0	4.0	-0.2	1.3%	0.8
23	COc1ccc(C2CC(c3ccc(OC)cc3)n3nc(NC(=O)c4cccs4)nc3N2)cc1 (stereo not given)	-4.7	3.1%[38.3 µM]	-8.8	-13.1	0.0	9.2%	-11.8
24	Brc1ccc(-c2noc(-c3ccccc3)n2)o1	-15.1	0.1%&4.3%	-1.5	17.5	-4.1	-20.7%	.
25	c1cnc(Nc2nc(-c3ccc4ccccc4c3)cs2)nc1	-2.9	1.2%[38.3 µM]	-4.5	0.4	-3.2	2.5%	4.7
26	CCCc1ccc2c(C(F)(F)F)cc(C(F)(F)F)cc2n1	-4.5	-0.7%	.	1.4	-3.8	.	4.5
27	COc1cccc(CNC(=O)C2=C(C)C(=O)OC23CCC(C)CC3)c1 (stereo not given)	-17.5	-0.4%	-14.3	-7.4	-2.2	-4.0%	-14.5
28	O=C(CSc1nc2ccccc2s1)N1CCCCC1	3.2	.	-26.6	0.6	0.7	-19.5%	7.9
29	CCN(CC)c1ccc(/C=N/NC(=O)CN2CCCc3ccccc32)cc1	-6.7	5.3%	-10.8	-7.0	-2.5	-10.7%	.
30	COc1ccccc1NC(=O)CN(C)S(=O)(=O)c1ccc(F)cc1	-13.1	-1.9%	3.1	3.3	-1.7	24.5%	15.8
31	CCn1c(=O)c2sccc2n(Cc2cc(C(=O)OC)ccc2OC)c1=O	-12.9	1.8%	-3.4	2.6	-0.4	11.1%	.
32	CC1CCN(C(=O)CCc2nnc(-c3ccccc3)o2)CC1	-8.2	-0.7%	-38.3	-6.5	-11.4	4.8%	3.1
33	O=C(/C=C/c1cc([N+](=O)[O-])ccc1OC(F)F)Nc1cccc2ccccc12	-7.1	1.7%	-9.2	7.6	4.6	-11.6%	7.5
34	O=C(CSc1nnc(-c2ccc(Cl)cc2)o1)NNC(=O)c1ccncc1	5.6	3.9%	-3.3	-0.4	4.5	.	1.3
35	O=C(c1ccc(Cl)c(Cl)c1)N1CCC(=O)N(C(COCc2ccc(Cl)cc2)Cc2ccccc2)CC1 (stereo not given)	-5.6	-0.9%	-10.7	3.5	1.4	?	-4.5
36	CCN(CC)c1c([N+](=O)[O-])c(=O)oc2ccccc12	-4.0	-1.9%	6.9	-11.1	-4.9	22.2%	-22.4
37	O=C(O)c1cnnc2ccccc12	-2.5	1.0%	.	-1.3	1.6	.	1.3
38	CCN(C(=O)c1cc(S(=O)(=O)N2CCCC2)ccc1C)C1CCS(=O)(=O)C1 (stereo not given)	-0.3	0.6%	-9.5	-1.1	-0.4	.	8.4
39	O=C1C=C(NNC(=O)c2ccncc2)CC(c2ccccc2)C1 (stereo not given)	-2.2	1.9%	6.7	-1.7	-0.9	18.3%	.
40	O=C(c1ccc(N2CCCC2)c([N+](=O)[O-])c1)N1CCN(c2ccccn2)CC1	-1.6	-0.7%	5.9	-8.7	-0.4	7.3%	-3.8
41	Cc1nc2nc(-c3ccccc3)[nH]n2c(=O)c1Cc1ccccc1	-1.8	0.0%	-1.0	-9.9	-1.4	17.3%	-0.2
42	CC(=O)Nc1ccc(S(=O)(=O)N2CCC(NC(=O)c3ccccc3)CC2)cc1	15.3	1.7%	-2.5	-1.7	4.7	22.8%	.
43	Cc1cc(C(=O)CSc2nnnn2-c2ccc(O)cc2)c(C)n1C	2.3	3.0%	-17.3	-8.5	-0.5	-6.2%	-8.4
44	O=C(NC(Cc1ccccc1)C(=O)O)/C(=C/c1ccccc1)NC(=O)c1cccc(Br)c1 (stereo not given)	0.3	0.9%	18.1	5.1	-5.3	23.5%	4.2
45	CCc1ccc(N2CC(C(=O)Nc3ccccc3N3CCCC3)CC2=O)cc1 (stereo not given)	-13.2	7.6%	.	-10.6	-3.1	.	2.6
46	Cc1sc2ncnc(N3CCOCC3)c2c1C	24.2	-3.0%[38.3 µM]	-8.7	-0.9	-2.3	17.7%	-10.9
47	CC(C)NC(=O)Nc1ccc2c(c1)C(=O)N([C@H](C)CO)C[C@H](C)[C@@H](CN(C)S(C)(=O)=O)O2	-9.8	0.2%	.	-2.0	-2.5	.	3.2
48	O=C(CCN1C(=O)/C(=C/C=C/c2ccccc2)SC1=S)Nc1ccccn1	2.1	9.1%	13.1	-4.8	2.6	3.4%	-1.0
49	COc1ccc(NC(=O)CN(C)C(=O)c2sc3ccccc3c2Cl)cc1	-4.6	3.7%	1.1	-3.8	-1.4	.	-28.1
50	COc1ccc(C2CC(c3cccs3)=NN2C(=O)COC(=O)c2cncc(Br)c2)cc1OC (stereo not given)	-7.6	1.4%	-2.0	-15.0	1.7	0.1%	5.7
51	CN(C)S(=O)(=O)c1ccc(Cl)c(NC(=O)COC(=O)CN2C(=O)C3CCCCC3C2=O)c1 (stereo not given)	-9.6	0.2%	0.9	4.7	-4.1	19.8%	-8.3
52	COc1ccc(CNC(=O)COC(=O)CCOc2ccc(C)cc2)cc1OC	5.0	3.8%	1.4	0.5	3.0	.	2.0
53	COc1cccc(CC(=O)N[C@@H](CCSC)c2nc3ccccc3[nH]2)c1	-7.6	3.9%	-9.4	-18.8	-4.4	-2.3%	-10.1
54	O=C(c1cnc2c(c1)COc1ccc(Cl)cc1-2)c1ccccc1O	-6.0	2.9%&7.6%	8.4	-3.2	3.5	?	-7.6
55	O=C(N/N=C\c1ccc(Cl)cc1)c1sccc1-n1cccc1	-5.3	13.1%	-6.3	-10.5	-0.2	16.8%	-0.8
56	COc1ccc(NC2CCCN(C(=O)c3cccnc3)C2)cc1 (stereo not given)	-7.7	3.3%	20.8	5.9	-5.3	-5.6%	.
57	O=C(O)COCc1nc2ccccc2[nH]1	-5.5	-16.6%[38.3 µM]	22.4	6.3	-1.5	10.9%	3.6
58	C[C@H]1CN([C@@H](C)CO)C(=O)c2cc(Br)cnc2O[C@@H]1CN(C)C(=O)C1CCC1	7.8	-1.0%	.	37.5	2.4	.	0.0
59	CCOC(=O)C1CCCN(S(=O)(=O)c2cc(C(=O)OC)n(C)c2)C1 (stereo not given)	3.6	-0.5%	-6.0	6.3	9.6	2.3%	4.5
60	COc1cc(NC(=O)c2ccnc(N)c2)cc(C(=O)Nc2cccc(C(F)(F)F)c2)c1	-12.6	3.7%	-22.4	-8.1	-0.2	1.6%	0.5
61	Cc1ccccc1CSCCNC(=O)CN(c1ccc2c(c1)OCO2)S(C)(=O)=O	2.9	-2.4%[38.3 µM]	7.1	-3.0	0.2	-8.8%	1.4

Some entries already given, reduced to D2 potentiator.
entry	smiles	D2 potentiator
55	O=C(N/N=C\c1ccc(Cl)cc1)c1sccc1-n1cccc1	-5.3
49	COc1ccc(NC(=O)CN(C)C(=O)c2sc3ccccc3c2Cl)cc1	-4.6

Screening results as filed in PubChem.
